# Assay outcomes: PubChem BioAssay, National Center for Advancing Translational Sciences (NCATS)
# miR-21 FLuc: miR-21 reporter, rising signal | 340,000 tested, under 10 active | HeLa miR-21 FLuc reporter, luciferase, 48 h | Potency, µM (doses to about 38.3 µM), inactives show at the highest dose reporter change, positive = more light; active = well fitted rising curve with a large enough effect; inconclusive = small, poorly fitted or top-dose-only effect; inactive = no such curve, though single readings can be large or run the other way;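 further: % of control where 0% means no effect; miR-21 action dims this reporter so a rising signal means less miR-21 action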
#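 Compounds were titrated across several concentrations (up to approximately 40 uM) and incubated 48 hours with HeLa miR-21-FLuc reporter cells (miR-21 target sequence downstream of FLuc, endogenous miR-21). Readout was firefly luciferase luminescence after lytic detection reagent.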
# GLA inh pH 4.5: inhibitors of human alpha-galactosidase A at pH 4.5; 230,000 tested, under 10 active; activity change, negative = inhibition, % at 105 µM; P06280; purified enzyme, 4-MU-alpha-Gal fluorescence, pH 4.5; inconclusive = small, poorly fitted or top-dose-only inhibition, or a rising curve; inactive = flat fitted curve, though single readings scatter; no compound was filed as active;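 further: 0% = full activity with enzyme and -100% = basal without enzyme; dose as in the result columns while the protocol names 77 µM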
# Target sequence (P06280 whole entry, looked up): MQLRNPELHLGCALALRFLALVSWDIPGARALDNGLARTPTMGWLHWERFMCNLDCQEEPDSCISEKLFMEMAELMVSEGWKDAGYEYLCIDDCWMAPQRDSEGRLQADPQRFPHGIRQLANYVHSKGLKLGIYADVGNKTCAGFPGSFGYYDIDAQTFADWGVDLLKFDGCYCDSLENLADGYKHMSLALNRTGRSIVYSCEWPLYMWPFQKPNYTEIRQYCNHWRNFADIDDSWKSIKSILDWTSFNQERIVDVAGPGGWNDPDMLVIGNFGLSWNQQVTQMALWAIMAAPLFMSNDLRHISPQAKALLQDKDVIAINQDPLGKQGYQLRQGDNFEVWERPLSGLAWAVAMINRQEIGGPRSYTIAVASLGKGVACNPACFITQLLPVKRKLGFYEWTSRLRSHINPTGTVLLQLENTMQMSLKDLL
# Rango dissoc inh: inhibition of RanGTP-driven Rango-importin beta dissociation. O95149+P62826. Biochemical FRET Rango-importin beta, RanGTP-induced dissociation. Potency, µM (series often up to 46.1 µM), for the others: at the top dose activity change, negative = inhibition. actives 0.071% (n = 340,000); active means falling FRET ratio curve, often poorly fitted, with flat reads before Ran was added; inconclusive means other falling curves, or compound fluorescence or quenching; inactive means flat or rising ratio curve;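 further: potency means the concentration at half of the fitted maximal effect; % of control where 0% means no effect; nearly all actives have a fitted effect of over 45% in size; -100% = wells without RanGTP and RCC1; the record marks most hits as doubtful in a second field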
#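 Rango FRET biosensor (snurportin-1 IBB flanked by N-terminal EYFP and C-terminal CFP10) at 0.1 uM, with 0.25 uM importin beta in PBS, 1mM DTT, 0.02% Tween-20, 0.1% BSA. 0.6 uM Ran, 2mM GTP and 0.2 uM RCC1 were then added for 45 min at room temperature. Inhibition read as loss of FRET rise.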
# Rango complex inh: Rango-importin beta binding inhibition; Q14974; Rango CFP/YFP FRET sensor + importin beta, 45 min; Potency, µM (highest dose often 92.2 µM), without a hit: at the highest dose inhibition of complex formation; actives 0.031% (n = 340,000); AID 540263; active = rising FRET ratio curve, often small or poorly fitted; inconclusive = mostly compound fluorescence or quenching in the first reads; inactive = flat curves in all reads;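 further: potency means the concentration at half of the fitted maximal effect; 0% = DMSO wells and 100% = buffer wells lacking importin beta; nearly all actives have a fitted effect of over 15% in size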
#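 FRET biosensor (snurportin 1 IBB flanked by EYFP and cerulean), 50 nM, with compound 5 min, then 0.125 microM importin beta in PBS, 1 mM DTT, 0.02% Tween-20, 0.1% BSA. CFP/YFP ratio read after 45 min at room temperature; pre-read flags interference.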
# * = called active by the depositor; ? = inconclusive; / = no result given; & = joins results of further samples.
item	SMILES	miR-21 FLuc	GLA inh pH 4.5	Rango dissoc inh	Rango complex inh
1	O=[N+]([O-])c1ccc2c(c1)C(=NO)c1cc(Cl)c(Cl)cc1-2	/	/	-7%	-2.1%
2	Nc1nonc1C(=O)NCCNCc1cc(Br)ccc1OCc1ccccc1F	30%	-18	13%	-3.4%
3	CCOC(=O)CSc1nnc(CNc2ccc(F)cc2)o1	0%	0	-21%	1.2%
4	O=C(NC1CC2CCCC(C1)N2C(=O)Nc1ccc(Cl)c(C(F)(F)F)c1)C1CC1 (stereo not drawn)	-6%	12	11%	-5.5%
5	CCCC(CCC(=O)OC)(C(=O)OCC)c1csc(N)n1 (stereo not drawn)	0%	5	8%	-1.9%
6	COc1ccc(CCNC(=O)C2CC(c3cccc([N+](=O)[O-])c3)=NO2)cc1 (stereo not drawn)	-41%	6	-7%	4.9%
7	Cc1ccc(-n2c(SCC(=O)Nc3cc(C)on3)nc3c(c2=O)SC(C)C3)cc1 (stereo not drawn)	-2%	0	0%	7.2%
8	COc1ccc(-c2nnc(NC(=O)c3ccc(S(=O)(=O)N4CCc5ccccc5C4)cc3)o2)cc1	-1%	-3	-2%	-3.9%
9	Cc1c(Cl)c([N+](=O)[O-])nn1CC(=O)NC(C)C1CC2CCC1C2 (stereo not drawn)	0%	1	-3%	-1.8%
10	COc1cc(Cn2ccnc2)c(OC)cc1Cn1ccnc1	-4%	3	1%	1.8%
11	CCC(=O)c1ccc(OCC(=O)Nc2cccc(S(=O)(=O)N3CCCCCC3)c2)cc1	/	/	-9%	3.3%
12	Cc1ccc2c(c1)C(=O)CC(c1ccccc1)S2 (stereo not drawn)	/	/	-4%	1.7%
13	COC(=O)c1cnc(Oc2c(Cl)cc(N)cc2Cl)cc1C(F)(F)F	4%	-5	24%	-0.2%
14	Nc1nc(SCC(=O)Nc2ccc(Cl)c(S(=O)(=O)N3CCOCC3)c2)n[nH]1	-10%	0	-1%	1.1%
15	Cc1cc2nc[nH]c2cc1[N+](=O)[O-]	-5%	-8	8%	-0.5%
16	COc1ccc(OC)c(-c2csc(NC(=O)C3=NNC(=O)CC3)n2)c1	0%	-11	-9%	?
17	Nc1c(Sc2ccccc2)c(=O)[nH]c(=O)n1Cc1ccccc1	/	/	-5%	1.5%
18	O=C(Oc1ccc(Cl)c(Cl)c1)C1=CC=CN2CCS(=O)(=O)N=C12	/	/	5%	1.2%
19	C=CC[C@H](CC(=O)NCCO)C(=O)N[C@H](COC(=O)[C@@H](CC=C)Cc1ccc(F)cc1)C(C)(C)C	/	/	11%	5.2%
20	CC(SC(=S)N(C)Cc1cccs1)C(=O)O (stereo not drawn)	1%	1	7%	-1.7%
21	CN1CCN(c2ccc([N+](=O)[O-])cc2C(=O)c2ccc(Br)cc2)CC1	2%	-29	-5%	-4.7%
22	CCCCCCNCc1cccc(Br)c1	-8%	2	3%	-6.2%
23	CCOC(=O)c1ccccc1NC(=O)Cn1cnc2c(cnn2-c2ccccc2)c1=O	1%	-1	-15%	0.5%
24	O=C(c1ccc(Sc2cccc(Cl)c2)c([N+](=O)[O-])c1)N1CCN(c2ccccn2)CC1	4%	-7	?	-1.5%
25	CCOc1cc(CNc2ccc(O)cc2)ccc1OCc1ccc(Cl)cc1Cl	24%	-14	-10%	-0.4%
26	Cc1ccc(CSCC(=O)N2CCN(c3ccc(F)cc3)CC2)cc1	0%&0%	-6	-10%	3.3%
27	OCCNC(=S)Nc1ccc(Oc2ccccc2)cc1	-2%	2	1%	1.1%
28	COC(=O)c1c(NC(=O)c2ccnn2C)sc(C)c1C	/	/	2%	2.9%
29	CCCc1ccccc1OCCNC(=O)c1cc(=O)n(C)c(=O)n1C	5%	1	-8%	0.3%
30	CCc1nn(C(C)C(=O)N(C)Cc2ccccc2)c(=O)c2cc3occc3n12 (stereo not drawn)	-3%	/	-20%	-3.8%
31	CC[C@@]1(C(=O)OC)N[C@H](CN(C)S(=O)(=O)c2ccc(C(F)(F)F)cc2)[C@@H]2C(=O)N(C)C(=O)[C@@H]21	/	/	-2%	4.3%
32	O=C(NC1CCCC1)C(Cc1ccccc1)n1cccc1 (stereo not drawn)	-4%	1	-2%	-0.7%
33	O=C(CN1C(=O)NC2(CCSC2)C1=O)NCc1ccccc1 (stereo not drawn)	-3%	3	?	0.6%
34	O=C(NCC1CCCO1)/C(=C/c1cn(-c2ccccc2)nc1-c1cccnc1)NC(=O)c1ccccc1 (stereo not drawn)	1%	-4	-9%	-2.8%
35	CC(=O)c1cccc([N+](=O)[O-])c1	/	/	1%	0.3%
36	CCC(NC(=O)c1ccccc1NC(=O)c1ccco1)C(=O)O (stereo not drawn)	-1%	-3	-1%	-4.6%
37	C[C@H](CO)N1C[C@H](C)[C@@H](CN(C)S(C)(=O)=O)Oc2c(NC(=O)Cc3ccccc3)cccc2C1=O	/	/	0%	-0.4%
38	COC(=O)c1ccc2c(=O)n(Cc3ccco3)c(SCC(=O)Nc3ccc(C)c(Cl)c3)nc2c1	-1%	3	9%	4.0%
39	COc1cccc(C(=O)Nc2ccc(Oc3cccc(C(F)(F)F)c3)nc2)c1	27%	-14	15%	2.6%
40	CCOC(=O)Cc1cc(=O)n2[nH]c(-c3ccc(C)cc3)cc2n1	-5%	-1	-4%	?
41	CC(=O)c1c(C)[nH]c(C(=O)OCC(=O)NCCC2=CCCCC2)c1C	/	/	-4%	0.2%
42	O=C(CN1C(=O)NC2(CCCC2)C1=O)Nc1nc2c(F)cc(F)cc2s1	/	/	-9%	6.3%
43	O=C(Nc1ccnn1C1CCN(C(=O)c2ccccc2C(F)(F)F)CC1)C1CC1	-7%	/	-4%	0.2%
44	CCOC(=O)N1CCN(C(=O)COC(=O)Cc2ccc(Cl)cc2)CC1	1%	/	-13%	2.8%
45	CC(C)NC(=S)NC(=O)/C=C/c1cccc2ccccc12	-13%	-5	1%	1.3%

# Sorted by SMILES length (ascending): three of the compounds above.
item	SMILES	miR-21 FLuc	GLA inh pH 4.5	Rango dissoc inh	Rango complex inh
32	O=C(NC1CCCC1)C(Cc1ccccc1)n1cccc1 (stereo not drawn)	-4%	1	-2%	-0.7%
37	C[C@H](CO)N1C[C@H](C)[C@@H](CN(C)S(C)(=O)=O)Oc2c(NC(=O)Cc3ccccc3)cccc2C1=O	/	/	0%	-0.4%
31	CC[C@@]1(C(=O)OC)N[C@H](CN(C)S(=O)(=O)c2ccc(C(F)(F)F)cc2)[C@@H]2C(=O)N(C)C(=O)[C@@H]21	/	/	-2%	4.3%

# The list goes on:
item	SMILES	miR-21 FLuc	GLA inh pH 4.5	Rango dissoc inh	Rango complex inh
46	CCOC(=O)Cc1csc(NC(=O)CSc2nnc(-c3ccc(C)cc3)o2)n1	-2%	-1	-4%	1.3%
47	Cc1ccc(S(=O)(=O)NCCC(C)C)cc1[N+](=O)[O-]	27%	-6	-10%	?
48	CCNC(=S)NNC(=O)c1cccs1	-5%	3	-5%	1.9%
49	COC(=O)C1=CN(C2CC2)C=C(C(=O)OC)C1c1ccccc1OC	3%	?	?	?
50	COc1cccc(C(=O)NNC2=CC(=O)CC(C)(C)C2)c1	-10%	-5	?	?
51	CCOC(=O)C1=C(N)Oc2cc(O)ccc2C1c1ccc([N+](=O)[O-])cc1 (stereo not drawn)	0%	1	-15%	-1.8%
52	CCc1ccccc1N(C(=O)c1snc(C(N)=O)c1N)C(C(=O)NCC1CCCO1)c1c[nH]c2ccccc12 (stereo not drawn)	19%	/	-2%	-2.8%
53	COc1ccc(S(=O)(=O)N2CCc3ccccc32)cc1C(=O)N1CCC(C)CC1	/	/	10%	-2.3%
54	CCc1nnc(NC(=O)CCS(=O)(=O)Cc2ccccc2)s1	6%	/	-10%	1.4%
55	Cn1cccc1/C=N/NC(=O)c1ccc[n+]([O-])c1	-1%	-11	28%	5.4%
56	Cn1c(=O)oc2cc(S(=O)(=O)Nc3cccc4c3CCCC4)ccc21	-9%	-8	15%	5.6%
57	NC(=O)Nn1c(CCC(=O)O)ccc1-c1ccc(Cl)cc1	0%	7	-9%	-5.8%
58	O=C(O)c1ccc(N2CCCC2=O)cc1	0%	5	-8%	-0.2%
59	COC(=O)CSc1nc2cc3c(cc2cc1C)OCO3	-40%	6	-4%	4.0%
60	Cc1cccc(C)c1NC(=O)CN(C)C(=O)C1CC1C (stereo not drawn)	/	/	-8%	-1.2%
61	Cc1nc2ccccc2c(=O)n1NC(=O)c1c(O)c2c(n(CC(C)C)c1=O)CCCC2	11%	-8	7%	-0.5%
62	Cc1cccc(N(CC(=O)NC2CCCCC2)C(=O)CCC(=O)Nc2ccccn2)c1	-5%	9	/	/
63	O=C(CCNc1ccc(Cc2ccncc2)cc1)c1ccc([N+](=O)[O-])cc1	1%	-1	-5%	0.8%
64	COC(=O)N/N=C/c1sc(N2CCCCC2)nc1-c1cccs1	-20%	-25	-30%	?
65	CC(OC(=O)CCc1nc2ccccc2c(=O)[nH]1)C(=O)NCc1ccc2c(c1)OCO2 (stereo not drawn)	5%	/	-8%	-0.1%
66	COc1ccc(OC)c(-c2csc(NC(=O)CSc3nnnn3C)n2)c1	/	/	-5%	-2.0%
67	OC1(c2nc3ccccc3[nH]2)CCCCC1	/	/	3%	0.3%
68	Cc1oncc1C(=O)NC(C)C	-4%	7	1%	0.3%
69	CC(=O)Nc1ccc(NC(=O)CN2CCN(c3ccccn3)CC2)cc1	2%	/	-2%	-2.1%
70	CCOC(=O)CON1C(=O)c2ccccc2C1=O	-3%	-2	10%	-1.1%
71	Cc1ccsc1CNCc1cc(Cl)ccc1O	/	/	23%	-0.6%
72	O=c1[nH]c(=O)c2[nH]c(=O)n(-c3ccccc3)c2[nH]1	/	/	15%	5.1%
73	CCCNC(=O)CN1C(=O)NC(CC)(c2ccc(F)cc2)C1=O (stereo not drawn)	-1%	/	1%	2.0%
74	Cc1cccc(S(=O)(=O)Nc2nc3ccccc3nc2NCc2ccco2)c1	-4%	5	-2%	0.1%
75	CCCc1cc(=O)[nH]c(N/N=C/C=C\c2ccccc2)n1	-2%	0	-7%	?
76	O=S(=O)(c1cccs1)N1CCN(c2ccccc2Cl)CC1	/	/	0%	2.7%
77	CSCCC(NC(=O)c1ccccc1)C(=O)N1CC=C(c2ccccc2)CC1 (stereo not drawn)	16%	/	9%	-1.1%
78	CNC(=O)COC(=O)/C=C/c1cn(-c2ccccc2)nc1-c1ccc(C)o1	2%	2	-12%	3.0%
79	CC(C)NC(=O)c1c(CSc2ccc(Cl)cc2)noc1C(=O)NCc1ccccc1	/	/	1%	0.7%
80	Nc1nc(NCCCN2CCOCC2)nc(Nc2cccc(Cl)c2)c1[N+](=O)[O-]	-14%	-9	1%	0.4%
81	Cc1ccc(N2CC(C(=O)OCC(=O)Nc3cccc(Cl)c3C)CC2=O)cc1 (stereo not drawn)	/	/	1%	-2.0%
82	CC1=C(C(=O)OC2CCCCC2)C(c2ccc(C)o2)C2=C(CCCC2=O)N1 (stereo not drawn)	-2%	-3	-12%	0.0%
83	CC(=O)c1sc(-c2ccc(F)cc2F)nc1C	-82%	-6	-9%	-0.4%
84	CC1(C)Cc2nc3sc4c(OCc5ccccc5)ncnc4c3cc2CO1	-4%	1	-2%	-0.6%
85	O=C(NCc1ccccn1)c1ccc(NC(=O)c2ccco2)cc1	-3%	-11	9%	-0.3%
86	COc1cc(NC(=O)CSc2nc3c(C)ccc(C)c3cc2C)c(C(=O)O)cc1OC	-2%	1	2%	0.2%
87	CC(=O)c1c(C(C)=O)c(C)n(Cc2ccc(Cl)cc2)c1C	11%	3	13%	-0.1%
88	O=C(CCc1ccccc1)Nc1ncn[nH]1	2%	0	14%	0.5%
89	Nc1cccc2[nH]c(=O)c3ccccc3c12	/	/	-14%	2.2%
90	CCN(CC)CCNCc1ccc(-c2ccc(Cl)cc2)o1	-16%	3	17%	-0.8%
91	COc1ccc(S(=O)(=O)N2CCN(Cc3ccccc3)CC2)cc1	-11%	-10	-5%	1.2%
92	O=C(NCCc1ccc(F)cc1)c1ccc([N+](=O)[O-])cc1	-46%	0	-3%	1.1%
93	CCOc1cc(/C=C2/C(=O)ON=C2C)ccc1OCc1ccccc1	9%	-6	7%	0.0%

# The list is partial, so the mix of outcomes need not match the whole.
